# Ecoli rRNA inh – reduced GFP signal of wild-type E. coli, primary screen, bacterial rRNA inhibitor project, GFP/RFP fluorescence, OD600, single point; GFP signal change (wild-type ribosome), % (no concentration beside the values); AID 720706, 2013; 350,000 tested, 1.6% active; E. coli WT GFP vs humanized-ribosome RFP mutants, 24 h; active compounds read low; DMSO median 0, no signal -100;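 active = significant combined selectivity score with lowered wild-type GFP, culture density cut under 30%, mutant RFP and density less affected; inactive = any of these conditions unmet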; note: one replicate is shown; some compounds called inactive have numbers as strong as hits
# UCH37 DUB inh – inhibitors of human UCH37 deubiquitinase, primary screen, biochemical, Ub-AMC cleavage, fluorescence. purified proteasome/UCH37. 330,000 tested, 0.33% active. inhibition, % (concentration not given with the values);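 active = mean of two replicates above 20%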;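 note: 0% = compound-free wells with enzyme and 100% = wells lacking proteasome; stock transfer was 100 nL into about 20 µL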
# Target sequence (Q9Y5K5 whole entry, looked up): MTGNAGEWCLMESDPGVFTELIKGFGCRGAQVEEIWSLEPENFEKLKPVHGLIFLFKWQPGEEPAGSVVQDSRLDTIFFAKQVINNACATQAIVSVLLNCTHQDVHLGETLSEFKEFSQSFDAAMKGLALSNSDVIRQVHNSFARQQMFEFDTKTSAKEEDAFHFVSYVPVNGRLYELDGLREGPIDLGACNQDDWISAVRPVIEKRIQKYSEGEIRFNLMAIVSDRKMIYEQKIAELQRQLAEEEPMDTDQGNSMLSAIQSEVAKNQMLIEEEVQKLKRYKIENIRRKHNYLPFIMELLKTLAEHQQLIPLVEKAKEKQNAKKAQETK
#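 Material: human UCH37 enzyme supplied as purified proteasome complex / Amount: 0.15 nM proteasome as dispensed / Buffer or medium: pH 7.4 Tris-HCl (50 mM) with ovalbumin, ATP-MgCl2, DTT / Times: preincubation 30 min, reaction 25 min, room temperature / Technique: AMC fluorescence from Ub-AMC cleavage, excitation 355 nm, emission 460 nm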
# MLL AF4-AF9 inh – inhibitors of AF4 peptide binding to AF9, primary screen, biochemical, AlphaScreen, biotin-AF4 peptide, FLAG-AF9, single point; inhibition, % at 10 µM; 350,000 tested, 0.47% active; AID 651704, 2012; Protein AF-9 (Homo sapiens), P42568;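 active = every replicate reaching a set inhibition limit, whatever the replicate mean, cut at about 25% in these data; inconclusive = mean inhibition reaches that limit but some replicates miss it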;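 note: 0% = plate neutral control median and 100% = total signal loss; the record names both 10 and 1 µM as test concentration; the first replicate is given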
# Target sequence (P42568 whole entry, looked up): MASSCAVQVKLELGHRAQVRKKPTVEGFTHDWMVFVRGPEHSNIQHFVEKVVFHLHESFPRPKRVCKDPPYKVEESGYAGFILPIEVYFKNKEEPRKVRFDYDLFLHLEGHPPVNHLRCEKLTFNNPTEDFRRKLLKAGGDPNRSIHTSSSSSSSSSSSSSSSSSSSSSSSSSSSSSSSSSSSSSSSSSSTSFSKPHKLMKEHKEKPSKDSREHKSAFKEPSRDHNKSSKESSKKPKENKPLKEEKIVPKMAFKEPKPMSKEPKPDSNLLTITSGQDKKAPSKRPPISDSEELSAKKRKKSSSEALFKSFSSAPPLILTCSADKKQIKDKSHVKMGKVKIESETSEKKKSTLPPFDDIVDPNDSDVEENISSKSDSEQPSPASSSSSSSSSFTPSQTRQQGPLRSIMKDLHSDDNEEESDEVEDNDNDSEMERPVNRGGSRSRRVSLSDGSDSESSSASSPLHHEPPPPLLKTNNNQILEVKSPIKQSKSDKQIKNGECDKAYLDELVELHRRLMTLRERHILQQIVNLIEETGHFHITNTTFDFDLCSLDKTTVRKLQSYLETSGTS
# Bfl-1 A1 inh – caspase 3/7 activation in MEF A1-2A-BIM cells, primary screen, A1 inhibitor project, cell-based, luminescence, HTS; AID 2462, 2010; Caspase-Glo 3/7 luminescence, 3 h; percent of clofoctol response, vehicle zero; 330,000 tested, 0.066% active; caspase activation, % (no concentration beside the values);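 active = over half of replicate activation scores above 10%, or exactly half above 10 with the replicate mean above 10; inconclusive = replicate mean below 10 yet half the replicates above 10; inactive = over half of replicates below 10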;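 note: wells of about 30 µL received 50 nL stock; many hits fall short of the cut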
# Ecoli growth – E. coli growth inhibition, primary screen, OD600; OD600 absorbance (concentration not given with the values); AID 1053175, 2014; Escherichia coli growth, 23 h; active compounds read low; 330,000 tested, 0.21% active;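 active = OD600 absorbance below the run mean of sample wells minus 3.6 SD, in any replicate, cut at about 0.56 in these data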;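 note: stock transfer was 300 nL into about 60 µL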
# Beta apoptosis – inhibitors of cytokine-induced beta cell apoptosis, primary screen, luminescence; INS-1E cytokine-induced death, ATP luminescence, 48 h; percent of positive-control rescue, neutral wells zero; protection from apoptosis, % (concentration not given with the values); 300,000 tested, 0.8% active; AID 435005, 2010;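 active = all replicates at 75% or more, or half of them and the mean; inconclusive = half reach 75% but not the mean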;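 note: 0% = cytokine-treated negative control wells and 100% = positive control rescue; higher means more ATP so stronger rescue from cytokine killing; wells of about 40 µL received 100 nL stock; the first replicate is given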
# FGF22 binding – binders of human FGF22 protein, primary screen, FGF22 synaptogenesis inhibitor project, biophysical, thermal shift, single point. recombinant FGF22 thermal shift, SYPRO orange fluorescence; percent of sucrose octasulfate shift, DMSO zero. Fibroblast growth factor 22 (Homo sapiens), Q9HCT0. 340,000 tested, 1.5% active. calls only at 9.99 µM;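 active = melting point raised past a set limit in the mean and every replicate; inconclusive = no clear call; three in four hits are not shown here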
# Target sequence (Q9HCT0 whole entry, looked up): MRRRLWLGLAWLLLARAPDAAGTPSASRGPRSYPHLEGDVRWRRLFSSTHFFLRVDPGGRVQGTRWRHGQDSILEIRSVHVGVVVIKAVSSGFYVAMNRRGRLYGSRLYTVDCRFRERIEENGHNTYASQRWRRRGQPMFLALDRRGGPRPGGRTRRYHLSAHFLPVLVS
# T cruzi repl – inhibitors of intracellular T. cruzi growth, primary screen, luminescence, NIH3T3 host cells; inhibition, % (concentration not given with the values); 300,000 tested, 1.4% active; T. cruzi beta-gal in NIH3T3, 90 h; AID 1885, 2009;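 active = mean inhibition across valid replicates above about 55%, limit read from the data; inconclusive = mean below that limit but half or more replicates reach it; inactive = mean below it, under half of replicates reach it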;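 note: signal also drops with host cell toxicity which is not excluded here; 0% = plate median of DMSO wells and 100% = zero luminescence signal; higher percent means less beta-gal luminescence so fewer parasites; stock transfer was 50 nL into about 50 µL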
# Ecoli rRNA inh OD600 – further read-out of Ecoli rRNA inh, marked with its call; OD600 change, %; measured here: OD600 growth;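 optical density of the mix in the first replicate; 0 = DMSO median and -100 = no signal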
# Ecoli rRNA inh RFP – second read-out of Ecoli rRNA inh, no call of its own (marks repeat the call); RFP signal change, %; measured here: RFP humanized mutant strains;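 first replicate; 0 = DMSO median and -100 = no signal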
# * hit, by the source's call; i = inactive; u = inconclusive; x = not tested or not shown; & = joins results of further samples. Not all compounds are listed. The share of hits here may be higher or lower than overall.
Compound,Ecoli rRNA inh,Ecoli rRNA inh OD600,Ecoli rRNA inh RFP,UCH37 DUB inh,MLL AF4-AF9 inh,Bfl-1 A1 inh,Ecoli growth,Beta apoptosis,FGF22 binding,T cruzi repl
O=C(CCC1CCCC1)Nc1ccc(OCC(=O)N2CCOCC2)cc1,x,x,x,1.1,x,-1.0,0.72,x,x,-20
O=C(ON=C1CCN(S(=O)(=O)c2ccccc2)CC1)c1cccc(Cl)c1,x,x,x,3.0,x,0.6,0.73,-5,x,-22
CCOC(=O)c1sc(N)c(C#N)c1CSc1nnc(C2CC2)n1N,x,x,x,5.7,x,0.0,0.67,-10,x,-4
O=S(=O)(c1ccc(Cl)nc1)N1CCN(Cc2ccc3c(c2)OCO3)CC1,x,x,x,2.7,x,0.2,0.66,-3,x,9
Cc1cc(=O)oc2cc(OCC(=O)N3CCN(c4ccc(F)cc4)CC3)c(Cl)cc12,3,3,-0.3,1.1,1.6,0.0,0.67,0,i,-9
COc1ccc(-c2cc3ccc(OCC(C)=O)cc3oc2=O)cc1,4,6,0.8,x,-4.5,u,x,5,i,-25
CCn1cc(C(=O)N2CCCC(CO)(Cc3ccccc3C)C2)cn1 (centres undefined),6,8,-3.1,4.8,-2.1,-0.8,0.69,-6,i,3
CN1CCN(C(=O)/C(=C/c2cn(C)c3ccccc23)NC(=O)c2ccccc2)CC1,11,8,-0.5,10,1.5,-0.4,0.64,8,i,-4
O=S(=O)(NCC1CCCO1)c1ccc(Oc2ccccc2)cc1 (centres undefined),x,x,x,2.6,x,-1.2,0.65,5,x,-5
CCOC(=O)C1CCN(C(=O)C(CCSC)NC(=O)c2ccccc2OC)CC1 (centres undefined),-5,0,8.3,-0.6,-2.2,-0.1,0.68,-4,i,x
O=C(/C=C/NCC(=O)c1ccccc1)c1ccc(Br)cc1,-13,-20,1.1,1.9,7.3,-0.3,0.61,-4,i,-1
CC(C)Cn1c(-c2ccc(F)cc2)n[nH]c1=S,x,x,x,-1.3,x,0.4,0.74,0,x,-27
N#CC1=C(N)Oc2n[nH]c(-c3cccs3)c2C1c1ccccc1C(=O)O (centres undefined),5,11,-1.0,2.3,-3.0,-0.4,0.72,-7,i,-5
O=C(NCc1ccc(F)cc1)C1CCN(S(=O)(=O)c2cccnc2)CC1,4,2,0.4,0.3,-2.8,-0.5,0.67,x,i,-17
COc1c(Br)cc2c(C)c(C(=O)O)oc2c1Br,x,x,x,0.5,x,0.4,0.69,-13,x,3
NC(=O)C1=C[C@@H](c2ccccc2)C[C@@H](OCCCCO)O1,8,11,15,1.8,-4.4,-1.0,x,0,i,-18
Cc1nc2ccc(C(=O)OCc3ccccc3Br)cc2nc1C,17,10,-0.3,1.6,-19,-3.9,0.64,1,i,3
COc1ccc(Br)cc1CN1CCCC(C(=O)N2CCCCCC2)C1 (centres undefined),x,x,x,2.9,x,0.2,0.79,-2,x,32
CCCc1nnc(NC(=O)CCC(=O)NCc2ccc(OC)cc2)s1,14,15,-0.8,3.4,-8.0,1.2,0.73,0,i,-8
O=C(CCc1nc2ccccc2c(=O)[nH]1)N1CCN(c2ccc(F)cc2)CC1,15,12,0.8,0.9,0.8,-0.4,0.68,x,i,-6
CN(C)N=Nc1ccc(-c2cn(Cc3ccccc3)cn2)cc1,-4,8,15,6.4,5.2,-0.2,0.69,8,i,5
O=C(CN1C(=O)NC2(CCCCC2)C1=O)N1CCOCC1,3,11,-2.8,1.8,-2.1,2.5,0.66,-1,i,x
CCOC(=O)c1c(C)n(O)c2ccc(Cl)cc2c1=O,x,x,x,-25,x,x,0.57,-15,x,-23
COc1cccc(C2CC(=O)Nc3cc4c(cc32)CCC4)c1 (centres undefined),-11,-6,0.2,4.4,-2.6,0.1,0.72,26,i,-26
C=CCN1C(=O)CC(C(=O)NC)SC1=Nc1ccc(C(=O)OCC)cc1 (centres undefined),x,x,x,-0.8,x,0.7,0.76,3,x,-8
COC(=O)c1ccccc1NC(=O)c1noc2c1CC(C(C)(C)C)CC2 (centres undefined),x,x,x,0.8,x,1.5,0.71,1,x,4
O=C1CCCc2c1cc(C(=O)NCc1ccco1)c(=O)n2-c1ccccc1,x,x,x,1.9,x,0.4,0.71,-6,x,4
COc1ccc(CC(=O)Nc2nc(-c3ccc(F)c(F)c3)cs2)cc1,-34,-54,9.9,3.2,0.0,0.0,0.64,4,i,14
COc1ccc(S(=O)(=O)N(C)Cc2cccs2)cc1Br,x,x,x,0.9,x,1.2,0.67,-16,x,6
COc1ccc(Br)cc1S(=O)(=O)n1nc(C)cc1C,-2,-1,-0.7,-0.2,-14,u,0.67,-5,i,-10
C=CCn1c(SCC(N)=O)nnc1-c1cccc(Br)c1,x,x,x,1.5,x,-0.2,0.73,-4,x,-13
O=C(NCc1ccc(F)cc1)c1cccc2c1C(=O)c1ccc(Cl)cc1S2(=O)=O,6,10,0.6,x,-5.3,-0.4,x,-2,i,x
Cc1cnc(NC(=O)c2ccncc2)s1,-2,-2,1.6,2.9,-0.5,-0.6,0.69,x,i,-8
c1ccc2c(c1)oc1c(Nc3ccc4c(c3)OCO4)ncnc12,x,x,x,-1.5,x,-4.9,0.7,16,x,-8
Cc1nn2c(CN(C(=O)COc3ccccc3)c3ccccc3)nnc2c2ccccc12,x,x,x,4.9,x,0.9,0.68,4,x,11
CN(C)Cc1nc2ccccc2c(=O)n1CC(=O)Nc1cccc(S(=O)(=O)N2CCOCC2)c1,16,14,-1.7,-3.5,-1.5,-0.1,0.67,-1,i,-13
COc1ccc(N2C(=O)C3CCCN3C2c2cccc(C)c2)cc1Cl (centres undefined),x,x,x,0.1,x,0.5,0.71,7,x,-1
O=C(COc1ccccc1Cl)Nc1ccccc1C(=O)Nc1cccc(C(=O)O)c1,-29*,-16*,-6.0*,2.2,0.0,0.7,0.67,5,i,-6
O=C(CSc1nnnn1-c1ccccc1)N1CCc2ccccc2C1,x,x,x,5.9,x,0.9,0.73,-6,x,12
C=CCn1c(SCc2ccccc2C#N)nnc1-c1cc(Br)ccc1O,x,x,x,1.2,x,-1.2,0.72,5,x,12
C/C(CC(=O)Nc1ccc(Cl)cc1C(F)(F)F)=N\NC(N)=S,-6,-16,1.0,x,x,0.0,x,0,i,3
O=C(NCc1cccnc1)C1CCN(c2ccc(S(=O)(=O)N3CCOCC3)cc2Cl)CC1,-4,-9,-1.2,4.0,-0.4,1.1,0.7,6,i,-1
CN(C)S(=O)(=O)c1cc(C(=O)Nc2ccn(C)n2)c(Cl)cc1Cl,3,-2,-0.7,0.0,-1.8,0.2,0.68,-7,i,x
COc1ccc(OC)c(-n2nnnc2SCC(=O)Nc2ccccc2N2CCOCC2)c1,2,-1,-0.2,0.9,2.1,0.7,0.66,-16,i,8
COc1cc(CO)cc(Br)c1OCC(=O)Nc1cccc2ccccc12,-24*,-8.1*,8.5*,0.9,1.5,-0.2,0.67,-3,i,2
Nc1cccc(CP(=O)(c2ccccc2)c2ccccc2)c1,-2,2,-0.1,3.7,-2.4,0.8,0.7,-3,i,x
O=C(Nc1ccccc1Sc1ccccc1)c1ccccc1,x,x,x,3.4,x,-0.2,0.7,2,x,17
COc1ccc(S(=O)(=O)N(CC(=O)NCc2cccnc2)Cc2ccccc2)cc1,-5,-8,-5.3,0.6,0.0,0.6,0.66,0,i,-8
CC(C)CC(O)(CC(C)C)C(=O)NNc1ccccc1,x,x,x,2.6,x,-0.1,0.69,0,x,1
CCCn1c(N2CCN(CC(=O)c3c(C)n(C)c4ccccc34)CC2)nc2c1c(=O)[nH]c(=O)n2C,x,x,x,4.0,x,-0.2,0.78,7,x,18

# Going on with the list.
Compound,Ecoli rRNA inh,Ecoli rRNA inh OD600,Ecoli rRNA inh RFP,UCH37 DUB inh,MLL AF4-AF9 inh,Bfl-1 A1 inh,Ecoli growth,Beta apoptosis,FGF22 binding,T cruzi repl
COc1cccc(NC(=O)CSc2nc3ccccc3cc2Cc2ccccc2)c1,x,x,x,1.2,x,-0.2,0.73,-3,x,33
CS(=O)(=O)Oc1ccc(/C=N/NC(=O)c2ccncc2)cc1,7,10,-1.3,x,2.5,-0.6,x,-6,i,-7
COc1ccccc1N1CCN(C2CCN(C(=O)c3cccs3)CC2)CC1,x,x,x,1.3,x,-1.3,0.73,-3,x,-5
C[C@H](CO)N1C[C@H](C)[C@H](CN(C)S(=O)(=O)c2cn(C)cn2)Oc2ccc(NC(=O)Nc3ccc(C(F)(F)F)cc3)cc2CC1=O,-3&0,-8&-2,0.4&0.2,0.1,1.2,1.5,x,-1,i,x
COc1ccc(Nc2nc(N)nc(CSc3nccc(C)n3)n2)cc1,x,x,x,3.0,x,0.3,0.72,0,x,2
Cc1ccc(S(=O)(=O)N2CCCC(C(=O)NC3=NCCS3)C2)cc1 (centres undefined),x,x,x,-2.3,x,0.1,0.8,-9,x,-1
O=S(=O)(c1cccc2cccnc12)N(CCO)CCO,8,0,-3.0,4.3,6.2,0.7,0.68,-5,i,-12
O=C(NCc1ccc(Cl)cc1)C1CCCN(c2cnccn2)C1 (centres undefined),2,4,2.6,-10,-1.7,-0.5,0.63,-8,i,12
C/C=C\C=C/C(=O)Nc1cccc(C2=NOC3(C2)C[C@@H](C(N)=O)N(C(=O)C2(C)CC2)C3)c1 (some centres undefined),5,-4,3.1,1.5,-4.4,0.9,x,-9,i,-14
O=S1(=O)CC/C(=N/Nc2ccccn2)c2cc(F)ccc21,7,1,-4.4,x,-0.3,0.1,x,-6,i,-9
CC(NC(=O)c1ccc(C(F)(F)F)cc1)C(c1ccccc1)N1CCOCC1 (centres undefined),-6,-11,-0.2,3.5,-3.8,0.8,0.65,6,i,-16
Cc1nc(S(=O)(=O)c2ccc(Cl)cc2Cl)nc2c1CCC2,x,x,x,-0.5,x,-1.5,0.66,1,x,-3
O=C(NC1CCC(O)CC1)c1cccc2cccnc12 (centres undefined),2,2,1.6,-0.7,-14,-0.2,0.64,-4,i,-10
Cc1cccc(CC(C)NC(=O)CCc2nnc(-c3ccccc3)o2)n1 (centres undefined),6,3,-5.1,0.2,-15,0.3,0.68,-4,i,3

# Assay outcomes deposited in PubChem by several laboratories.
